Screens as filed in PubChem BioAssay.
hNpr1 antagonist: human Npr1 receptor antagonism | P16066 | HEK293 hNpr1 GloSensor cGMP, ANP-stimulated luminescence | Potency, µM (top dose mostly 46.3 µM), for inactives: at the highest dose activity change, negative = inhibition, actives largely listed as inhibitors | 76,000 tested, 1.6% active | AID 1347048; active = well fitted inhibition curve with a large enough effect; inconclusive = small, poorly fitted or top-dose-only effect; inactive = no such curve, though single readings can be large or run the other way;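 further: nearly all actives have a fitted effect of over 60% in size; nearly all hits also lower the signal before the agonist is added; a reference antagonist and vehicle were the controls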
Target sequence (P16066 whole entry, looked up): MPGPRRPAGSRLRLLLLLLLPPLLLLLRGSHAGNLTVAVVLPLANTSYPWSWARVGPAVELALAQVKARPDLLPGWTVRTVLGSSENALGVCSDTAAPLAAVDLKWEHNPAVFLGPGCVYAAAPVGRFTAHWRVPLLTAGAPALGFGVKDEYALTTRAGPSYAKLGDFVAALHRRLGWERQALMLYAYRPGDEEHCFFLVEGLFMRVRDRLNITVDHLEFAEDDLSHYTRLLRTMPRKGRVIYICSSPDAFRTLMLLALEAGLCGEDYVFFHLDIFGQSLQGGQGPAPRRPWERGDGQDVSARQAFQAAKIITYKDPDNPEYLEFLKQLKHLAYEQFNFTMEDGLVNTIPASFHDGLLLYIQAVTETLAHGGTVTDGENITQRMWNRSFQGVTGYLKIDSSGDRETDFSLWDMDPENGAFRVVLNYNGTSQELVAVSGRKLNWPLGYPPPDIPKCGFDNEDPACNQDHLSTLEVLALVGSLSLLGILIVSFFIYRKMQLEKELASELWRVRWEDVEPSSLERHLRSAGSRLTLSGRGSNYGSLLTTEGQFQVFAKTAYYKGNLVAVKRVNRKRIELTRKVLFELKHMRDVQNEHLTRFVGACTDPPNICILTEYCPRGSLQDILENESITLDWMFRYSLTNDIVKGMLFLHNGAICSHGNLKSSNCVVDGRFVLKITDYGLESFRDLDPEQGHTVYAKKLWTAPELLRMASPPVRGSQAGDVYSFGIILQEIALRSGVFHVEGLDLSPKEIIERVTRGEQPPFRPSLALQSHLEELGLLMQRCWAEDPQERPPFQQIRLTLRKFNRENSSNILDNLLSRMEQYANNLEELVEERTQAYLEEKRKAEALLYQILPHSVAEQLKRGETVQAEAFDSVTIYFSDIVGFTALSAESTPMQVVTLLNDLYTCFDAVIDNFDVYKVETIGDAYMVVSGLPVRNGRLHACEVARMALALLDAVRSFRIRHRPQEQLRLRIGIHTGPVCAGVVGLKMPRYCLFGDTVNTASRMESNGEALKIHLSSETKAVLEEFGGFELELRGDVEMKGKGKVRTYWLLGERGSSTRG
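Compound pre-incubated 30 min at room temperature on GloSensor-loaded HEK293 cells stably carrying hNpr1 and the pGS-40F cGMP biosensor. Stimulation uses hNppA at 0.1 nM final; luminescence is taken at baseline and 20 min post-agonist.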
The depositor's hits bear a star; ? = inconclusive; [ ] = another dose, or the depositor's remark. On the % scale 0 is the no-effect control and ±100 the full control effect; potency means the concentration at half of the fitted maximal effect.

#	Structure	hNpr1 antagonist
1	COCCc1nncn1C1CCN(S(=O)(=O)c2ccc(F)c(F)c2)CC1	4%
2	Cc1ccc(OCCN2CCC3(CC2)C(C(=O)O)CC(=O)N3C)c(C)c1 (stereo not drawn)	-1%
3	O=C(CN1C(=O)NC2(CCCCC2)C1=O)Nc1ccccc1F	0%
4	Cc1cccc(NC(=O)N2CCC3(CC2)CC(N2CCOCC2)CCO3)c1 (stereo not drawn)	27%
5	O=C(CCc1cc2n(n1)CCN(C(=O)C1Cc3ccccc3O1)C2)NC1CC1 (stereo not drawn)	2%
6	Cc1ccc(Cl)cc1NC(=O)Cn1nc2c(cc1=O)CCCCC2	1%
7	O=C(CCc1ccc2c(c1)CN(C(=O)C1CC1)CCO2)NCc1cc(F)cc(F)c1	0%
8	COCc1noc([C@@H]2CC(F)(F)CN2C(=O)Cc2c(C)noc2C)n1	-6%
9	C=CCNC(=O)N[C@H]1C[C@@H](C(=O)N[C@@H](C(=O)OC)C(C)C)N(C(=O)CSC)C1	3%[70.6 µM]
10	Cc1cccc(C(=O)N2CCCCCC2c2nc(-c3cccnc3)no2)c1 (stereo not drawn)	-6%
11	COc1ccc(-c2nn(-c3ccc(C)cc3C)c(OC(C)=O)c2-c2ccc(NC(C)=O)cc2)c(OC)c1	-13%
12	COc1ccc(-n2nc(C3CCCN(Cc4cccs4)C3)[nH]c2=O)cc1 (stereo not drawn)	14%
13	COCCNC(=O)[C@@H]1C[C@@H](O)CN1C1CCN(C(=O)COc2ccccc2)CC1	-8%
14	CC1=NS(=O)(=O)N(Cc2ccccc2)C=C1C(=O)OCc1nc(-c2ccc(F)cc2)no1	-30%
15	CC(C)NC(=O)N1CCCC1c1noc(CCC(=O)NC2CC2)n1 (stereo not drawn)	1%

Molecules shown so far that have sulfur:
#	Structure	hNpr1 antagonist
1	COCCc1nncn1C1CCN(S(=O)(=O)c2ccc(F)c(F)c2)CC1	4%
9	C=CCNC(=O)N[C@H]1C[C@@H](C(=O)N[C@@H](C(=O)OC)C(C)C)N(C(=O)CSC)C1	3%[70.6 µM]
12	COc1ccc(-n2nc(C3CCCN(Cc4cccs4)C3)[nH]c2=O)cc1 (stereo not drawn)	14%
14	CC1=NS(=O)(=O)N(Cc2ccccc2)C=C1C(=O)OCc1nc(-c2ccc(F)cc2)no1	-30%

Other compounds follow.
#	Structure	hNpr1 antagonist
16	CCC(=O)N1CCC([C@H]2[C@@H](OC)C(=O)N2C(C)C)CC1	6%
17	C[C@]1(CO)[C@H]2Cc3sc(NC(=O)c4ccc(F)cc4)nc3[C@@H](CC(=O)NC3CCCC3)[C@]2(C)CC[C@H]1O	-1%
18	CCc1nccn1CC(=O)N1CCC2(CC1)[C@H](O)C[C@@H]2O	11%
19	Cc1cc(NC(=O)Cn2nc3n(c2=O)CCCC3)no1	1%
20	CCC[C@H]1CN(C(=O)c2ccc3c(c2)nc(NCCOC)n3C)C[C@@H]1N	-2%
21	CC1=C[C@@H](CNC(=O)NCc2ccccc2)[C@H](C(C)C)C[C@H]1CC(=O)NCc1cccnc1	1%
22	OCCC1CN(CCOc2ccc(F)cc2)CCN1CC1CCCCC1 (stereo not drawn)	5%
23	C[C@@H]1CN(S(=O)(=O)c2ccccc2)CC[C@@]1(O)C1CCOCC1	10%
24	CC1=C[C@@H](CNC(=O)C2CCCCC2)[C@H](C(C)C)C[C@H]1Cc1nc2c(C)cccc2[nH]1	-19%[70.6 µM]
25	COc1ccc2ccc(OCc3nc(C(=O)N4CC(N5CCCCC5)C4)co3)cc2c1	-19%
26	Cc1cccc(NC(=O)C2CCN(C(=O)c3ncn4c3COC(c3ccccc3)C4)CC2)c1 (stereo not drawn)	-28%
27	COc1ccc(CCN2Cc3cc(NC(=O)c4ccccc4)ccc3OC(C)C2=O)cc1 (stereo not drawn)	-2%
28	Cc1ccccc1Oc1c(CCC(=O)NCC2CC2)c(C)nn1-c1ccc(F)cc1	?
29	CCCCNC(=O)Cc1csc2nc(C)c(-c3cc(C)n(-c4cc(Cl)ccc4C)n3)c(=O)n12	0%
30	O=C1CCn2nnc(CNc3cccc(C(F)(F)F)c3)c2CN1Cc1ccccc1	-2%[70.6 µM]
31	O=C(c1cccc2c1CCN2C(=O)Nc1ccccc1)N1CCN(c2ccccc2)CC1	-24%
32	Cc1nnc(-c2cc(C(=O)NCc3ccco3)ccn2)n1Cc1cccnc1	1%[70.6 µM]
33	COc1ccccc1CN1CCCC(CN(CCN(C)C)C(=O)c2cccnc2)C1 (stereo not drawn)	0%
34	O=S(=O)(c1ccccc1)N1CCC(NCC2(O)CNCCOC2)CC1 (stereo not drawn)	-1%
35	CCOc1ccc(C(=O)NC2CCN(c3cc(-c4ccc(OC)cc4)[nH]n3)CC2)cc1OCC	-14%
36	C=CCS(=O)(=O)N1CCC2(CCCN(CCCc3ccccc3)C2=O)C1 (stereo not drawn)	0%
37	Cc1ccc(CNC(=O)N2c3ccccc3CC2c2nc(C3CC3)no2)cc1 (stereo not drawn)	-22%
38	Cn1c(CN2CCC(O)CC2)nnc1C1CCCN(Cc2ccccn2)C1 (stereo not drawn)	3%
39	CCOC(=O)CCNC(=O)N1CCCN(C(=O)C2CC2)C(c2ccccc2)CC(=O)NCC1 (stereo not drawn)	-9%
40	CCc1noc(-c2cn(C3CCN(C(=O)c4ccc(F)cc4)CC3)nn2)n1	-5%
41	CCCNC(=O)N1CCCC1C(=O)Nc1ccccc1-c1ccc(OC)cc1 (stereo not drawn)	-5%
42	CC(C)c1cc(C(=O)N2C[C@@H](C)[C@](O)(C3CC3)C2)n[nH]1	2%
43	CC#CC(=O)N1CCCC(C(=O)Nc2ccc(-c3cccc(OC)c3)cc2)C1 (stereo not drawn)	?
44	CC1(CCCCN2CCOCC2)COc2ccc(C(=O)Nc3ccc4[nH]ccc4c3)cc2N1 (stereo not drawn)	?
45	O=C(C[C@@H]1C[C@H]2O[C@H](CNC3CCOCC3)[C@@H](O)[C@H]2O1)N1CCOCC1	6%[70.6 µM]
46	CC(C)C(C(=O)N1CCC2(CC1)CN(C)CCN2C)c1ccc(Cl)cc1 (stereo not drawn)	1%
47	CCC(CC)C(=O)N1CCCN(S(C)(=O)=O)c2ccccc21	2%
48	O=C(COc1ccc(F)cc1)N1CC(c2nnc(-c3ccncc3)o2)C2(CCOCC2)C1 (stereo not drawn)	-8%
49	O=C(NCc1ccncc1)C1CN(Cc2cccs2)CC12CCOCC2 (stereo not drawn)	-9%
50	CCOC(=O)C1(Cc2ccccc2Cl)CCN(Cc2cccc3c2OCO3)CC1	-18%
51	COC[C@@H]1CN(C(=O)CCc2c(C)nn(C)c2C)C[C@H]1c1ccccn1	3%
52	Cc1ncoc1C(=O)N1CCOC(Cc2cccc(C(F)(F)F)c2)C1 (stereo not drawn)	1%
53	Cc1cn2nc(C(=O)Nc3ccc(C)c(F)c3)cc2c(N2CCSCC2)n1	-2%
54	Cc1ccc(C)c(N2CCN(C(=O)CCc3conc3-c3ccccc3)CC2)c1	-1%
55	COc1ccc(-c2nc(Cn3c(-c4ccccc4)nc(C)c(CCO)c3=O)c(C)o2)cc1	1%
56	O=C(CCc1nc(C2CCCN2C(=O)c2n[nH]c3ccccc23)no1)NCc1ccccc1 (stereo not drawn)	2%
57	Cc1cccc(S(=O)(=O)N2CCC(n3cnnc3C(C)C)CC2)c1	?
58	CCNC(=O)c1cccnc1OC1CCN(C(=O)c2ccc(C)cc2)C1 (stereo not drawn)	-2%
59	CN1CCN(c2nc3c(c(=O)[nH]2)CCN(Cc2ccc(C#N)cc2)CC3)CC1	2%
60	Cn1c(=O)[nH]cc(CC(=O)N2CCOCC(O)C2)c1=O (stereo not drawn)	3%

Looked up above:
Entry for no. 48 in hNpr1 antagonist: -8%
Entry for no. 11 in hNpr1 antagonist: -13%
Entry for no. 2 in hNpr1 antagonist: -1%
Entry for no. 4 in hNpr1 antagonist: 27%

Additional results
#	Structure	hNpr1 antagonist
61	O=C(c1ccc(Br)cc1)N1CCC(n2cnnc2C2CC2)CC1	0%
62	O=C([C@@H]1C[C@H](Oc2ccccc2)CN1C(=O)C1CCCC1)N1CCCC1	0%
63	COCCNC(=O)c1ccc(CN2C(=O)NC3(CCS(=O)(=O)CC3)C2=O)cc1	8%
64	CC(C)C[C@@H]1N[C@H](C(=O)NCc2ccccn2)Cc2c[nH]c3cccc1c23	-18%[70.6 µM]
65	NC(=O)[C@@H](Cc1c[nH]c2ccccc12)NC(=O)[C@@H]1C[C@@H](NS(=O)(=O)c2cccs2)CCN1C(=O)[C@@H](O)[C@H](O)C(=O)O	6%
66	CCn1ccc(-c2c(-c3ccccc3)ncn2CCN(C)S(C)(=O)=O)n1	5%
67	CCc1csc(CNC(=O)c2ccc(N3CCSCC3)nc2)n1	-23%
68	Cc1cc(Cl)cc(Cl)c1CNCC1(O)CCCNC1 (stereo not drawn)	-2%
69	COCc1ccc2c(c1)c(OC(C)(C)C(=O)N1CCOCC1)nn2Cc1cccnc1	2%[70.6 µM]
70	COCc1nnc(NC(=O)CN2CCN(c3nccnc3C#N)CC2)s1	12%
71	CN1C(=O)CS(=O)C12CCN(C(=O)Cc1cccc(F)c1)CC2 (stereo not drawn)	2%
72	CCC1Oc2ccc(NC(=O)Cc3ccc(F)cc3)cc2CN(Cc2ccc(OC)cc2)C1=O (stereo not drawn)	-12%
73	Cc1ccc2[nH]c(CN3CC[C@H]4NCCC[C@]4(CO)C3)cc(=O)c2c1	6%
74	O=C(c1cnn2cc(CCO)cnc12)N1CCc2c(nc[nH]c2=O)C1	2%
75	COc1ccc(-c2cc(N3CCCN(C(=O)c4cc5ccccc5[nH]4)CC3)n[nH]2)cc1	-19%

Six compounds out of the list above, sorted by the value under hNpr1 antagonist, low to high.
entry | molecule | hNpr1 antagonist
67 | CCc1csc(CNC(=O)c2ccc(N3CCSCC3)nc2)n1 | -23%
72 | CCC1Oc2ccc(NC(=O)Cc3ccc(F)cc3)cc2CN(Cc2ccc(OC)cc2)C1=O (stereo not drawn) | -12%
71 | CN1C(=O)CS(=O)C12CCN(C(=O)Cc1cccc(F)c1)CC2 (stereo not drawn) | 2%
66 | CCn1ccc(-c2c(-c3ccccc3)ncn2CCN(C)S(C)(=O)=O)n1 | 5%
73 | Cc1ccc2[nH]c(CN3CC[C@H]4NCCC[C@]4(CO)C3)cc(=O)c2c1 | 6%
70 | COCc1nnc(NC(=O)CN2CCN(c3nccnc3C#N)CC2)s1 | 12%

New compounds follow.
No.	SMILES	hNpr1 antagonist
76	COc1ccc(C(=O)NC2CCN(c3cc(-c4ccccc4)[nH]n3)CC2)c(OC)c1	-5%
77	NC1CCN(C(=O)C2CCCN(c3nc(-c4ccccc4)nc4c3CCC4)C2)CC1 (stereo not drawn)	8%
78	CCC(c1cccs1)N1C(=O)[C@H]2CN(S(=O)(=O)c3cccnc3)C[C@H]2C1=O (stereo partly drawn)	-2%
79	COC(=O)C1=C(C)N=C2SC=C(CC(=O)NCCc3ccccc3)N2C1c1cccc(OC)c1 (stereo not drawn)	-16%
80	Cc1nnc(-c2cc(-c3ccc(CO)cc3)ccn2)n1Cc1ccccc1	2%[70.6 µM]
81	CC(C)C(=O)N1CCCN(S(C)(=O)=O)c2ccccc21	-2%
82	O=C(NC1CCCN(c2cc(-c3ccc(F)cc3)[nH]n2)C1)c1cc(F)ccc1F (stereo not drawn)	-21%
83	C=CCC(O)(CC=C)C(C)NC(=O)c1ccc(OC2CCN(Cc3ccccn3)CC2)cc1 (stereo not drawn)	-15%
84	CN(CC(=O)N1CCC2(CCNCC2)CC1)Cc1cccnc1	-1%
85	O=C(NCc1cccnc1Oc1ccccc1F)c1cnc2ccccn12	2%
86	Cc1ccc(C(=O)N2CCC3(CC2)N=C(c2ccc(Cl)cc2)NO3)cc1	?
87	COc1ccc(-c2cc3c(=O)n(CCNC(=O)c4cc(OC)cc(OC)c4)ccn3n2)cc1	-17%
88	Cc1cc(C(=O)N2CCn3nc(C(C)O)cc3C2)c2ccc(F)cc2n1 (stereo not drawn)	4%
89	Cc1cc(C)cc(C(=O)NC2CCN(c3cc(-c4ccccc4)[nH]n3)C2)c1 (stereo not drawn)	6%
90	C=CCc1cc(-c2c(-c3ccccc3)ncn2CCOCCO)cc(OC)c1O	-14%
91	O=C1C(N2CCN(S(=O)(=O)c3ccc(F)c(F)c3)CC2)CCN1CCc1ccccc1 (stereo not drawn)	1%
92	CCCCS(=O)(=O)NCCc1noc(-c2ccccc2)n1	-22%
93	Cc1cc(C(=O)N2CCCN(S(=O)(=O)c3ccccc3)CCC(=O)NCC2)nn1C	4%
94	CCCc1noc(-c2cccn3c(CNC(=O)CC4CCCCC4)nnc23)n1	-12%
95	C1CNC(c2nc(C3CCOCC3)no2)C1 (stereo not drawn)	3%
96	CCn1ccc(C(=O)NCC23CCCC=C2NC(=O)CC3)n1 (stereo not drawn)	0%
97	Cc1cccc(CCNC(=O)CCc2nc(C3CCCN3S(C)(=O)=O)no2)c1 (stereo not drawn)	-3%
98	CNC(=O)[C@@H]1C[C@H](Oc2ccccc2)CN1C(=O)CCc1ccc(OC)cc1	-7%
99	COc1cccc(-c2nnnn2[C@H]2CO[C@H]3[C@@H]2OC[C@@H]3NC(=O)CC2(CC(=O)O)CCCC2)c1	0%
100	COc1ccc(CN2CCOC[C@H]2c2ncc(-c3ccc(C)cc3)[nH]2)cc1	-26%[70.6 µM]
101	CS(=O)(=O)N1CC[C@H](C(=O)NNC(=O)Cc2ccccc2)C1	-4%[70.6 µM]
102	O=C(Nc1ccccc1)c1ccc(-c2cccc3c2CCNC3)o1	-24%
103	O=C(OCc1ccccc1)N1CCOCC12CCN(Cc1cccc(O)c1)CC2	-3%[70.6 µM]
104	COC1CCOC2(CCN(C(=O)c3c[nH]c4ccccc34)CC2)C1 (stereo not drawn)	-1%
105	O=C(NCC1CCOCC1)c1ccccn1	7%
106	COc1cc(OC)cc(C(=O)N2CCCN(c3cc(-c4ccc(F)cc4)[nH]n3)CC2)c1	-6%

These rows are one share of the data, so the mix of outcomes need not match the whole.
